Screening results deposited in PubChem BioAssay by National Center for Advancing Translational Sciences (NCATS).
TRPML1 agonist: agonists of human TRPML1 channel. Q9GZU1. TRPML1-expressing cells, Ca2+ dye fluorescence, FDSS; host cell line not named in the record; reference of the full effect not given here. activation, % (test concentration not listed). 410,000 tested, 0.12% active. AID 624414; in the data active = activation above about 50%; inconclusive = about 30% to 50%; inactive = below about 30%; note: 0% is about no effect; the text of the record puts the active cut at 80%
Target sequence (Q9GZU1 whole entry, looked up): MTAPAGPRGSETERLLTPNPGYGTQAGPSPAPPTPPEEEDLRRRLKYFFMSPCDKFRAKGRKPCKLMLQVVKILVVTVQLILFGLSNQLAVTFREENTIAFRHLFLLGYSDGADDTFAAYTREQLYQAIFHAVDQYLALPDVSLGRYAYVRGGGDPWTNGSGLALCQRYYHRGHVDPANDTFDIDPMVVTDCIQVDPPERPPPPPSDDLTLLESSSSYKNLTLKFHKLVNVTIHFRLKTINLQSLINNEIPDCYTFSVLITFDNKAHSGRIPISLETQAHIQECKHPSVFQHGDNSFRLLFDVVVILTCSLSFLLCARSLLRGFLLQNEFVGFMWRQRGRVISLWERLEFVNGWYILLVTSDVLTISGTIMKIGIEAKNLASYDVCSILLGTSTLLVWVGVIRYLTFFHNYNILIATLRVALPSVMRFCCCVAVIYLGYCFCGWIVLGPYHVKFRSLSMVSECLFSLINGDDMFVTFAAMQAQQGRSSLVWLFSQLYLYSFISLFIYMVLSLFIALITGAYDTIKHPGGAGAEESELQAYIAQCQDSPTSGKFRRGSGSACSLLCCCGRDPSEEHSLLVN
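Tetracycline-induced TRPML1-DL cells are seeded and incubated overnight before loading with a no-wash Ca2+ dye and quencher. Agonist activity is taken from the 110 s fluorescence read following compound pin-transfer on an FDSS, before EC80 54-4 challenge.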
TRPML1 blocker: blocks the human TRPML1 channel; Q9GZU1; TRPML1-inducible cells, Ca2+ dye fluorescence, FDSS; stronger effect = lower value; inhibition of EC80 agonist-evoked calcium signal; activity change, negative = inhibition, % (test concentration not listed); 390,000 tested, 0.02% active; in the data active means activity change below about -50%; inconclusive means about -30% to -50%; inactive means above about -30%;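 note: stimulus is agonist 54-4 at its EC80 concentration; % is set by controls: 0 for no effect and ±100 for the full control effect; compound concentration not given in the record; the text of the record puts the active cut at -80%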
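TRPML1-DL cells, Tet-induced overnight (~16 h, 37 °C) at 1,500 cells/well, were loaded with Ca8 no-wash dye plus quencher for 45-90 min at room temperature. Compounds were pinned during FDSS kinetic reading; agonist 54-4 at EC80 (4 uM final) then added.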
gsp antag: antagonists of gsp mutant (McCune-Albright syndrome). AID 624288. Potency, µM (doses to about 76.9 µM), for inactives: top-dose activity change, negative = inhibition, actives largely listed as inhibitors. gsp-mutant cells, cAMP HTRF, 30 min; control for the full effect not named in the record. 340,000 tested, 0.4% active; active = falling curve of any shape with a large fitted effect; inconclusive = falling curve, mostly with a smaller effect; inactive = flat or rising curve; cell line not stated here;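 note: intracellular cAMP measured with PDE inhibitor Ro 20-1724 present during compound exposure; potency is the fitted concentration of half-maximal effect; % is set by controls: 0 for no effect and ±100 for the full control effect; nearly all actives have a fitted effect of over 65% in size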
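Measurement of cellular cAMP by homogeneous time-resolved fluorescence following a 30 min compound exposure at 37C. The PDE inhibitor […] was present throughout; the assay buffer was DPBS with 0.05% BSA and 0.005% Tween 20.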
gsp agonist: agonists of gsp mutant (McCune-Albright syndrome) | AID 624287 | gsp mutant cells, cAMP HTRF, 30 min; control for the full effect not named in the record | Potency, µM (titrated, usually from 76.9 µM), without a hit: top-dose activation (cAMP increase), hits mostly activators | 340,000 tested, 0.13% active; active = well fitted activation curve with a large enough effect; inconclusive = small, poorly fitted or top-dose-only effect, or another doubt; inactive = no such curve, though single readings can be large or run the other way; cell line not stated here;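 note: phosphodiesterase inhibitor Ro 20-1724 added with compounds to block cAMP breakdown; potency is the fitted concentration of half-maximal effect; nearly all actives have a fitted effect of over 60% in size; about a fifth of the inactives were tested at one dose only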
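Cells stably selected in G418 were plated at 2000/well, grown 16-24 hr, then given compounds in DMSO with the PDE inhibitor […] (300 uM solution added) for 30 min at 37C; cAMP was read by HTRF.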
Menin-MLL FL inh: displaces fluorescein MLL peptide from human menin | Fluorescence polarization, fluorescein-MLL peptide displacement from menin | FP activity change, % at 61.4 µM | 290,000 tested, under 10 active | AID 1766; inconclusive = falling polarisation curve, or a change in total fluorescence; inactive = total fluorescence flat and polarisation flat or rising; no compound was filed as active; the % refers to the polarisation; negative = inhibition;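 note: % of control where 0% means no effect; inhibitors lower the polarisation; unlabelled MLL peptide was the positive control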
ClpP mod: qHTS Assay for Activators of ClpP | ATP-dependent Clp protease proteolytic subunit (Bacillus subtilis (strain 168)), P80244 | 340,000 tested, 1.9% active | purified B. subtilis ClpP, FRET peptide cleavage, 20 min | AID 651965, 2013 | Potency, µM (doses to about 57.5 µM), inactives show at the highest dose activity change, negative = active; active = well fitted falling curve with a large enough effect; inconclusive = small, poorly fitted or top-dose-only effect; inactive = no such curve, though single readings can be large or run the other way; note: potency is the fitted concentration of half-maximal effect; the source files actives as falling curves though it sought activators and does not explain the sign; nearly all actives have a fitted effect of over 65% in size; many hits overshoot -100%
Target sequence (P80244 whole entry, looked up): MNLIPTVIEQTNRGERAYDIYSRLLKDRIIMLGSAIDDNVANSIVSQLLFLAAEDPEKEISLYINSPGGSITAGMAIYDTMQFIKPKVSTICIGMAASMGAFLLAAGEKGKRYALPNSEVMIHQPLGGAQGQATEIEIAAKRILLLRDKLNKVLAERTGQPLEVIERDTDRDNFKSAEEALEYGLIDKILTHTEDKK
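Buffer: 100 mM Tris/HCl pH8, 100 mM KCl, 0.05% low protease BSA, 2.5% glycerol, 0.01% Tween-20. ClpP 10 microg/mL final; 20 min RT; delta FRET normalized to ADEP and DMSO controls.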
Active calls of the source: *; ? = inconclusive; · = no result given; & = joins results of further samples; [ ] = another dose, or the depositor's remark.

Molecule	TRPML1 agonist	TRPML1 blocker	gsp antag	gsp agonist	Menin-MLL FL inh	ClpP mod
CCOC(=O)/C=C1\CN(Cc2cc(OC)c(OC)c(OC)c2)S(=O)(=O)c2ccc(C(F)(F)F)cc21	0.4&0.2	-16	-16%	·	5.2	1.7%&-1.1%
CCCc1n(CC(O)COCC2CC=CCC2)c2ccccc2[n+]1C (stereo not drawn)	-1.5	17	20%	-1%[15.4 µM]	0.8	0.3%
Cc1nnc(NC(=O)CSc2nnc(-c3ccco3)n2C(C)C)s1	-0.1	-11	3%	-10%[15.4 µM]	3.0	·
COC(=O)c1cccnc1NC(=S)NC1CCCCC1	0.6	-11	2%	-16%[15.4 µM]	0.8	2.2%
Cc1ccc(S(=O)(=O)Nc2ccccc2F)cc1C(=O)OC(C)C(=O)N1CCOCC1 (stereo not drawn)	0.0	7	3%	25%	·	-4.6%
CC(=O)c1ccc(S(=O)(=O)Oc2ccc(C(=O)O)cc2Cl)cc1	-0.2	-10	-11%	-1%[15.4 µM]	·	-2.4%
CCOC(=O)c1cc2c(=O)c3cc(C)ccc3oc2nc1C	-0.2	-4	8%	7%	-0.7	·
NNC(=O)c1ccc(COCC(F)(F)F)cc1	-0.5	-6	13%	4%[15.4 µM]	3.7	0.3%
Cc1ccc(SCC(=O)NCc2ccccc2)cc1	0.3	-10	8%	1%	-3.2	-1.2%
COc1cccc(NC(=O)CCNC(=O)Cn2cnc3ccccc3c2=O)c1	-0.6	5	·	·	·	-1.3%
COc1ccc(-n2c(=O)c3c(c4cc(OC)ccc4n3C)n(Cc3cc(C)ccc3C)c2=O)cc1	-0.5	4	·	·	·	?
Cc1ccc(NC(=O)[C@@H]2CCCN2C(=O)c2cccs2)cc1S(=O)(=O)N1CCCCC1	0.8	6	-6%	-7%	·	-5.3%
COCCn1c(C)cc(C(=O)COC(=O)CCN2C(=O)c3ccccc3C2=O)c1C	0.0	-6	-10%	-8%	-6.4	-1.2%
CCC(C)NC(=O)C1(N2C(=O)c3ccccc3C2=O)CCCC1 (stereo not drawn)	-0.8	-5	14%	-1%[15.4 µM]	·	-0.4%
O=C(O)c1ccccc1NS(=O)(=O)c1cccc2cccnc12	1.4	-13	2%	-11%	2.3	-0.2%
Cn1c(=O)c2c(ncn2CC(O)CNc2ccc(F)cc2)n(C)c1=O (stereo not drawn)	0.1	-4	6%	23%[15.4 µM]	1.3	1.3%
CCc1c(C)nc(N)nc1OCC(F)(F)C(F)F	7.5	1	0%	3%	2.3	-2.1%
C=CCNC(=S)Nc1c(N)n(C)c(=O)n(C)c1=O	0.8	-21	9%	-8%[15.4 µM]	2.8	·
COc1cc(OC)c(/C=N/N2CCN(c3ccccc3OC)CC2)c(OC)c1	-0.7	-15	5%	0%	-0.4	5.5%
C[C@@H]1CN([C@@H](C)CO)C(=O)CCCn2cc(nn2)CO[C@H]1CN(C)S(=O)(=O)c1cccc(F)c1	-0.4	4	·	-2%	·	-1.2%
Cn1cc(/C=N/n2cnc3scc(-c4ccccc4)c3c2=O)c2ccccc21	-0.3	-4	-3%	-7%	2.1	-18%
CCC(C(=O)NC1CC(C)(C)NC(C)(C)C1)c1ccccc1 (stereo not drawn)	-0.1	-11	5%	-1%	-2.5	-1.8%
CC(C)CCNC(=O)CN(Cc1ccco1)C(=O)c1snc(C(N)=O)c1N	1.1	18	-1%	1%[15.4 µM]	-0.9	·
O=C(COC(=O)c1ccc2c(c1)C(=O)N(c1cccc3ncccc13)C2=O)c1ccc(Cl)cc1	0.2	-3	-11%	11%	4.0	·
CC(=O)C[C@H](O)CC(=O)[C@H]1OC(=O)CC/C=C\Cc2ccccc21	0.0	11	-5%	?	·	-2.6%
COc1cccc(NC2CC(=O)N(CCc3ccccc3)C2=O)c1 (stereo not drawn)	0.3	2	-7%[15.4 µM]	16%	7.8	0.5%
C=CCn1c(=N)n(CC(=O)OCC)c2ccccc21	0.3	-6	12%	-1%	0.8	25µM*
Cc1ccc(NC(=O)COC(=O)CC2SC(N3CCCC3)=NC2=O)cc1 (stereo not drawn)	-0.2	3	9%	7%	·	1.0%
CCCOC(=O)Nc1cc(OC)ccc1[N+](=O)[O-]	1.5	2	9%	-2%	-6.5	-2.5%
COc1cc(OC)cc(C(=O)NCC(=O)N2CCN(Cc3ccccc3)CC2)c1	-0.8	9	4%	-43%	·	-4.6%
Cc1cccc(C)c1NC(=O)CNC(=O)c1ccccc1	0.5	-6	11%	-52%[inhibitor]	-3.4	·
O=C(CNC(=O)c1ccco1)Nc1ccc(F)c(Cl)c1	-0.6	-1	-1%	-26%[15.4 µM]	-3.2	-0.1%
O=C(Nc1c2c(nn1-c1ccccc1)CS(=O)(=O)C2)c1cc2ccccc2o1	0.2	-8	-7%	-11%[15.4 µM]	·	-1.8%
CCN(C(=O)COC(=O)c1ccc(=O)n(Cc2ccccc2)n1)C1CCS(=O)(=O)C1 (stereo not drawn)	-0.3	1	5%	6%	·	-1.9%
CC(Sc1nc(C2CC2)n(-c2ccccc2)n1)C(=O)c1c(N)n(C)c(=O)n(C)c1=O (stereo not drawn)	-0.2	22	3%	-12%	-5.0	-4.2%
COc1ccccc1N1CCN(C(=O)c2ccc(COc3cccc4c3OC(C)(C)C4)cc2)CC1	4.4	-14	?	3%[15.4 µM]	·	0.5%
Cc1ccc(CNC(=O)c2c(C)oc3ncnc(N4CCOCC4)c23)cc1	2.6	3	·	·	·	-4.6%
CC(C)OP(=O)(c1ccc(N(C)C)cc1)C(O)c1ccc(Br)cc1 (stereo not drawn)	-0.2	-10	-6%	12%[15.4 µM]	-1.6	·
CSc1ccc(NC(=O)C2(C)CCN2C(=O)c2cc(C)n(C)n2)cc1 (stereo not drawn)	0.8	-5	·	·	·	0.0%
CCOC(=O)C1CCCN(C(=O)CN2CCN(Cc3ccc(Cl)cc3)C2=O)C1 (stereo not drawn)	0.5	19	-9%	-3%	1.8	-0.8%
Cc1ccc(C(=O)NCCCc2ccccc2)s1	-0.4	-3	16%	-10%[15.4 µM]	-0.7	-17%
CC(C)c1nnc(NC(=O)C2CCCN2C(=O)Nc2ccc(F)cc2)s1 (stereo not drawn)	-0.4	6	4%	0%	-10	·
O=C(Nc1ccc(F)cc1)C(c1ccccc1)N1CCN(CC(=O)N2CCOCC2)CC1 (stereo not drawn)	2.4	-20	6%	5%	·	0.1%
O=C(CN(C(=O)c1csnn1)c1ccc(Br)cc1)NC1CCCCC1	1.3	-12	3%	-6%	5.7	·
Nc1c(Br)c(=O)[nH]c(=O)n1-c1ccccc1	2.4	13	6%	-11%	1.7	-0.6%
Cc1ccc(-c2nc3ccc(C)cn3c2Cc2ccsc2)cc1	1.0	14	·	·	·	4.2%
CC(C)C[C@H]1CNC(=S)N1C[C@H]1CCCN1C[C@H](Cc1ccc(O)cc1)N1C[C@H](Cc2ccccc2)N(CCc2ccccc2)C1=S	-0.5	-17	·	·	·	-2.3%
CCC1CCc2sc(C(=O)NNC(=O)c3ccncc3)cc2C1 (stereo not drawn)	-0.1	5	11%	12%	·	14µM*
CCOc1cc(C(=O)NCc2ccc3c(c2)CCN3C(=O)c2ccc(F)cc2)cc(OCC)c1OCC	5.3	-7	·	·	·	-3.7%
Cc1cc(C)nc(NCC(O)CNc2ccccc2Cl)n1 (stereo not drawn)	-1.0	-8	-30%	-33%[inhibitor]	0.5	1.8%
CN(C)c1ccc(/C=C(\C#N)c2ccccn2)cc1	3.3	7	-9%	-4%	?	?
Cc1cccc(NC(=O)Cn2c(=O)n(Cc3ccccc3)c(=O)c3oc4ccccc4c32)c1C	0.8	20	·	·	·	-30%
CCC(CC)C(=O)N1CCN(Cc2nc3ccccc3c(=O)[nH]2)CC1	0.6	1	-1%	27%	0.9	·
Cc1ccc(S(=O)(=O)Nc2nc(C)cc(NN)n2)cc1	-0.5	-9	-14%	?	0.6	·
Cc1nc([N+](=O)[O-])cn1C(C)C	0.2	-6	5%	14%[15.4 µM]	-4.2	·
COc1cccc(Nc2nc3ccc(OC)cc3s2)c1	2.4	-10	-15%	2%[15.4 µM]	5.5	·
Cc1ccc2sc(-c3ccc(NC(=O)c4cc(-n5cnnc5)ccc4Cl)cc3)nc2c1	0.9	6	1%	13%	-0.4	?
O=C(CSc1nc(-c2ccccc2)cc(C(F)(F)F)n1)NCc1cccs1	4.7	-3	6%	7%	-0.5	3.4%
CCC(=O)NC(=S)Nc1ccc(OC)cc1OC	-0.7	1	9%	3%	-0.9	-2.3%
CCN(CC)C(=O)C(=O)c1cn(CC(=O)NCC2CCCO2)c2ccccc12 (stereo not drawn)	0.1	4	-11%	3%[15.4 µM]	0.8	4.0%

(more compounds)
Molecule	TRPML1 agonist	TRPML1 blocker	gsp antag	gsp agonist	Menin-MLL FL inh	ClpP mod
COC(=O)c1cc(NC(=O)c2cccc(C(F)(F)F)c2)c(=O)oc1C/C=N/OCc1cccc(Cl)c1Cl	0.7	-7	4%	-1%	?	-2.2%
CCCCC1CCC(C(=O)OCC(=O)N(CCOC)c2c(N)n(Cc3ccccc3)c(=O)[nH]c2=O)CC1 (stereo not drawn)	-0.2	12	15%	-44%[inhibitor]	·	1.5%
O=C(Nc1ccc(NC(=O)c2ccco2)cc1)c1cnccn1	5.4	-1	8%	-7%	-0.4	-0.7%
COc1ccc(C(=O)NC2CCCN(Cc3ccccc3F)C2)c(OC)c1OC (stereo not drawn)	-0.4	-1	-10%	-40%[inhibitor]	-1.5	·
O=C(CSCc1ccccn1)Nc1ccccc1	-0.4	-3	3%	-7%	2.4	2.0%
COc1cc(C#Cc2c(-c3cncn3C)n(C)c3ccc(-c4ccc5cc[nH]c5c4)cc23)cc(OC)c1	0.5	26	-1%	?	·	4.0%
CCOC(=O)C1=C(O)/C(=C/c2ccccn2)SC1=Nc1ccc(Cl)cc1	3.9	20	-11%	-10%	5.9	1.1%
O=C(C1Cc2ccccc2CN1S(=O)(=O)c1ccc(F)cc1)N1CCOCC1 (stereo not drawn)	0.4	17	-2%	-3%	-1.0	-26%
CC(=O)[C@H]1CC[C@H]2[C@@H]3CC=C4C[C@@H](O)CC[C@]4(C)[C@H]3CC[C@]12C	-0.1	-7	-1%	-59%[inhibitor]	·	0.7%
Cc1[nH]c(=O)[nH]c(=O)c1/C=N/NC(=O)[C@@H](NC(=O)OC(C)(C)C)C(C)C	-0.2	-1	-7%	-21%	1.0	-15%
